N370S GC mod: qHTS Assay for Inhibitors and Activators of N370S glucocerebrosidase as a Potential Chaperone Treatment of Gaucher Disease. Lysosomal acid glucosylceramidase (Homo sapiens), P04062. N370S GC spleen homogenate, 4MU-glucoside fluorescence. Potency, µM (top dose mostly 59.4 µM), for the others: at the top dose activity change, negative = inhibition, actives largely listed as inhibitors. 330,000 compounds, 0.092% hits; active = well fitted inhibition curve with a large enough effect; inconclusive = small, poorly fitted or top-dose-only effect, or effect the other way, or another doubt; inactive = no such curve, though single readings can be large or run the other way;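 note: 0% = full enzyme activity and -100% = no enzyme basal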
An asterisk follows results filed as active; ? = inconclusive; & = joins results of further samples; [ ] = remark or other dose. Potency is the fitted concentration of half-maximal effect. Not all compounds are listed; most or all hits stand in other tables.

SMILES	N370S GC mod
COC(=O)c1cc2occc2n1Cc1nc(-c2ccccc2F)oc1C	-1%
COc1ccc(C)cc1-n1c(C)cc(C=O)c1C	0%
N#Cc1c(-c2ccc(F)cc2)noc1N	1%
COc1ccc(NC(=O)Nc2cc(C(C)(C)C)on2)cc1OC	-5%
CC(=O)OCC1=C(C(=O)O)N2C(=O)[C@@H](NC(=O)Cc3cccs3)[C@H]2SC1	8%&0%&-13%
Cc1cccc(C)c1NC(=O)C1NC(=O)CC1c1ccccc1 (stereo not drawn)	2%
CC(=O)Nc1ccc(S(=O)(=O)Oc2ccc(C=O)cc2)cc1	-6%
C=CCn1c(SCc2cc(=O)n3cc(C)ccc3n2)nnc1-c1cccc(C)c1	5%
CCCN(CCO)Cc1ccc2ccccc2c1	1%
Cc1cccc(CSCc2nnc(N)s2)c1	0%
O=C(NNC(=S)NCC1CCCO1)c1cc(Br)ccc1Cl (stereo not drawn)	0%
COc1ccc(C2Nc3ccccc3C(=O)N2NS(=O)(=O)c2ccccc2)cc1OC (stereo not drawn)	14%
COc1ccc(C2CC(c3ccccc3OC(C)=O)=NN2C(C)=O)cc1 (stereo not drawn)	3%
O=C(O)CCC(=O)NCc1c(Cl)cccc1Sc1ccc(Cl)cc1	-18%
NC1=C(c2ccc(F)cc2)C(=O)CS1	10%
COc1ccc2cc([C@H](C)C(=O)O)ccc2c1	5%
Cn1c(=O)c2sccc2n2c(CCCC(=O)NC3CCN(Cc4ccccc4)CC3)nnc12	-6%
CCN=c1sc2ccccc2n1CC(O)COc1ccccc1 (stereo not drawn)	-3%
C[C@H]1[C@H](NC(=O)C(=NOC(C)(C)C(=O)O)c2csc(N)n2)C(=O)N1S(=O)(=O)O	-12%
O=C(CCc1nc2ccccc2c(=O)[nH]1)NCc1ccccn1	-2%
CCc1ccc(CN(C)C(=O)c2cc(COc3cccc(C(F)(F)F)c3)on2)nc1	-4%
Cc1ccc2c(CNCc3ccccc3)cc(=O)oc2c1	-1%
COC(=O)c1ccc(CNC(=O)COC(=O)C2CC3C=CC2C3)cc1 (stereo not drawn)	5%
Cc1nnc2ccc(-c3cccc(NS(=O)(=O)c4cc(F)ccc4F)c3)nn12	-2%
COc1c(N2C[C@@H]3CCCN[C@H]3C2)c(F)cc2c(=O)c(C(=O)O)cn(C3CC3)c12	-2%
CCOC(=O)N1CCN(C(=O)CSc2ccc3nnc(CCNC(=O)c4ccccc4)n3n2)CC1	-7%
CN(C)/C=C(/C(=O)c1ccc(Cl)c(Cl)c1)c1nnnn1-c1ccccc1	4%
CCOc1ccc(NC(=O)C2CC(=O)N(c3cc(C)cc(C)c3)C2)cc1 (stereo not drawn)	-15%
COc1ccccc1N1CCN(C(=O)c2oc3cc(C)c(C)cc3c2C)CC1	3%
COc1cc(C(=O)N/C(=C\c2cn(S(=O)(=O)N(C)C)c3ccccc23)C(=O)NCCCO)cc(OC)c1OC	-4%
CNS(=O)(=O)c1c(C)cc(C)c(N(C)S(=O)(=O)c2ccccc2)c1C	-4%
CC1(c2ccc(OCC(N)=O)cc2)NC(=O)NC1=O (stereo not drawn)	-21%
C=CCC(O)c1c(-c2ccccc2)nn(C)c1Cl (stereo not drawn)	-3%
COc1ccccc1N(C)S(=O)(=O)c1ccc(C(=O)O)cc1	1%
O=C(Nc1cccc2c1C(=O)NC2=O)c1ccc(S(=O)(=O)N2CCCC2)cc1	4%
O=C(NNS(=O)(=O)c1ccc(C(=O)NC2CCCC2)cc1)c1ccncc1	-2%
CCOC(=O)c1oc2ccccc2c1NC(=O)CN1CCOCC1	15%
O=C(CN(C(=O)CCC(=O)Nc1nccs1)c1ccc(F)c(Cl)c1)NCC1CCCO1 (stereo not drawn)	2%
Cc1oc(-c2cccs2)nc1CN1CCN(CCC(C)C)C(CCO)C1 (stereo not drawn)	-20%
Cc1sc2c(c1C)C(=O)/C(=C\Nc1ccncc1)S(=O)(=O)N2C	22%

2 of the compounds above, bar-delimited:
Molecule | N370S GC mod
CCOc1ccc(NC(=O)C2CC(=O)N(c3cc(C)cc(C)c3)C2)cc1 (stereo not drawn) | -15%
Cc1ccc2c(CNCc3ccccc3)cc(=O)oc2c1 | -1%

Next entries
SMILES	N370S GC mod
CC(=O)N1CCC(N(CCN2CCOCC2)C(=S)Nc2cc(C)cc(C)c2)CC1	-5%
S=C(NCc1ccco1)N1CCN(c2ccccc2Cl)CC1	-1%
O=[N+]([O-])c1ccc(N2CCOCC2)c(S(=O)(=O)N2CCOCC2)c1	-7%
c1cncc(CNc2ncnc3ccc(-c4ccc5c(c4)OCCO5)cc23)c1	1%
COCCNS(=O)(=O)c1ccc(C)c(C)c1C	7%
COC(=O)CC(=O)N1CCN(c2ccc(Cl)c(Cl)c2)CC1	5%
COc1ccc(NC(=O)c2ccc(NCC3CCCO3)c([N+](=O)[O-])c2)cc1 (stereo not drawn)	-1%
CCN(CCCNC(=O)c1ccc2c(c1)NC(=O)CN2C)c1cccc(C)c1	4%
NC1C2CN(c3nc4c(cc3F)c(=O)c(C(=O)O)cn4-c3ccc(F)cc3F)CC12 (stereo not drawn)	1%
CN(c1cccc(Cl)c1)S(=O)(=O)c1cccc(C(=O)NC2=NCCS2)c1	-17%
O=C(CSc1ccsc1[N+](=O)[O-])N1CCN(c2ccccn2)CC1	-2%
O=C(Cc1coc2ccc3ccccc3c12)N1CCCC1	-15%
COc1ccc(OC)c(NC(=S)N2CCN(Cc3ccccc3)CC2)c1	-22%
O=C(NC1CCCN(Cc2ccccc2F)C1)c1cccs1 (stereo not drawn)	-20%
O=C(CCCOc1ccccc1)Nc1nnc(C2CCCO2)s1 (stereo not drawn)	2%
COc1ccc(-c2nc(CNS(=O)(=O)c3ccc(OC)c(OC)c3)cs2)cc1	18%
CC(=O)Nc1ccc(S(=O)(=O)NCC2CCC(C(=O)NCc3ccccc3)CC2)cc1 (stereo not drawn)	-5%
O=C(NC1CCN(S(=O)(=O)c2cccc(Cl)c2)CC1)C1CCCCC1	1%
Cc1ccc(S(=O)(=O)N2CCN(C(=O)c3cc4c(C)nn(-c5ccccc5)c4s3)CC2)cc1	13%
COC(=O)c1c(NC(=O)/C=C/C(=O)O)sc(C)c1-c1ccc(C)cc1	-6%
CCCC1(C(=O)OC)NC(c2ccc(OC)c(OC)c2)C2C(=O)N(c3ccc4c(c3)OCO4)C(=O)C21 (stereo not drawn)	-3%
COC(=O)c1cccc(NS(C)(=O)=O)c1	-3%
CC(C)Oc1cc(N)c(Cl)cc1Cl	1%
Cc1c(C(=O)NCc2ccco2)oc2ccccc12	7%
Cc1ccc(-c2nc(N)n(C(=O)c3cccs3)n2)cc1	-2%
COc1ccccc1CNCC(=O)NCc1ccc(C)cc1	2%
COc1ccc(CN(C)C(=O)CC(c2ccccc2)c2ccccc2)cc1	-10%
CC(O)CSc1nc2c(c(=O)[nH]c(=O)n2C)n1Cc1ccccc1Cl (stereo not drawn)	-6%
Cc1nc(C)n(CC(C)C(=O)N2CCN(S(=O)(=O)c3ccccc3)CC2)n1 (stereo not drawn)	-10%
CCC1CCCCN1S(=O)(=O)c1ccc(NC(=O)C2CCCO2)cc1 (stereo not drawn)	0%
O=C(CNC(=O)c1ccccc1F)OCc1csc(-c2ccccc2)n1	8%
Cc1csc(NC(=O)CSc2nnc(-c3cc(C)on3)o2)n1	-4%
Cc1ccc(S(=O)(=O)NC(=NCC(=O)O)c2ccc(F)cc2)cc1	6%
CCCn1c(SCC(=O)Nc2cccc(S(=O)(=O)NC3=NCCCCC3)c2)nc2ccccc2c1=O	-2%
COC(=O)Nc1ccc(S(=O)(=O)Nc2cnc3ccccc3n2)cc1	6%
COc1ccc(CCNC(=O)COc2ccc(S(=O)(=O)NC3CCCCC3)cc2Cl)cc1	9%
CN(C(=S)Nc1ccccc1)c1ccccc1	8%
COC1(OC)N=C(NC(=O)Nc2ccccc2)C2(C#N)C(c3ccccc3)C12C#N (stereo not drawn)	1%
COCCSc1nnc(NC(=O)C2CC(=O)N(c3ccccc3)C2)s1 (stereo not drawn)	-27%
Cc1cc(=O)oc2cc(OC(=O)CCCCCN3C(=O)c4ccccc4C3=O)ccc12	3%

Laid out differently: results already given.
N370S GC mod | Structure
-4% | Cc1csc(NC(=O)CSc2nnc(-c3cc(C)on3)o2)n1
6% | Cc1ccc(S(=O)(=O)NC(=NCC(=O)O)c2ccc(F)cc2)cc1
-2% | CCCn1c(SCC(=O)Nc2cccc(S(=O)(=O)NC3=NCCCCC3)c2)nc2ccccc2c1=O
6% | COC(=O)Nc1ccc(S(=O)(=O)Nc2cnc3ccccc3n2)cc1
9% | COc1ccc(CCNC(=O)COc2ccc(S(=O)(=O)NC3CCCCC3)cc2Cl)cc1

(cont.)
SMILES	N370S GC mod
Cc1ccc(N2C(=O)S/C(=C/c3cn(C)c4ccccc34)C2=O)cc1	-11%
Cc1ccc(NCc2nnc(SCC(=O)Nc3ncc(C)s3)n2Cc2ccco2)c(C)c1	5%
Cc1nnc(SCC2=C(C(=O)O)N3C(=O)C(NC(=O)Cn4cnnn4)C3SC2)s1 (stereo not drawn)	3%
CCN(CC)CCOc1cccc(C(C)C)c1	-6%
CC(C)(C)NC(=O)c1cccc(NC(=O)CSc2ccc(Cl)cc2)c1	5%
COc1ccc2nc(NCc3cccnc3)sc2c1	5%
CC1(C)NC(=O)N(CC(=O)Nc2nc(-c3ccc(F)cc3)cs2)C1=O	0%
COc1ccc(C)cc1Nc1cc(C)nc2nc(C)nn12	3%
COc1cccc(C(=O)Nc2ccc(Oc3cccc(C(F)(F)F)c3)nc2)c1	10%
CC(C)(C)NC(=O)C(=O)NNC(=O)c1ccccc1Br	-7%
CC(C)Cn1c(=S)[nH]c2cc(Cl)ccc21	8%
CCCCn1c(N)c(N(CCOC)C(=O)CCNC(=O)c2ccccc2Cl)c(=O)[nH]c1=O	-13%
CC1=C(C)CC2C(=O)N(Cc3ccccc3)C(=O)C2C1 (stereo not drawn)	3%
Cc1ccc(-c2nnc(C)c(N3CC(C)OC(C)C3)n2)cc1 (stereo not drawn)	11%
Cc1noc(C)c1C(=O)N1CCN(S(=O)(=O)c2ccc(F)cc2)CC1	14%
O=C(NCc1ccccc1Cl)c1cc(=O)[nH]c2ccccc12	-4%
O=Cc1ccc(N2CCCCC2)cc1	-1%
CCOCC(=O)Nc1ccc([N+](=O)[O-])cc1Cl	7%
CCCc1c(CC)c(=N)c2ccccc2n1C	24%
CSc1ccccc1NC(=O)Nc1cccc(F)c1	10%
Cc1cc(=O)oc2cc(OCC(=O)N3CCC(O)CC3)c(Cl)cc12	6%
Cc1cc(C)c(S(=O)(=O)N2CCCC(C(=O)NCc3ccccn3)C2)c(C)c1 (stereo not drawn)	1%
O=C(CN1CCN(Cc2ccccc2F)C1=O)NCCN1CCOCC1	2%
Nc1c(C(=O)NCc2ccco2)nnn1CC(=O)Nc1ccccc1	1%
S=C(NCc1ccccc1)N/N=C/c1cccs1	-8%
CC(=O)c1c(C(=O)O)[nH]c(C(=O)O)c1C	0%
CC1Cc2cccc3c(O)c(C(=O)c4nn[nH]n4)c(=O)n1c23 (stereo not drawn)	1%
CC(OC(=O)c1ccccc1O)C(=O)Nc1ccc(Cl)cn1 (stereo not drawn)	11%
O=C(Nc1nc(-c2cccs2)c(C(=O)C(F)(F)F)s1)c1ccccc1	18%
CN(C)C(=O)CSc1nnc(-c2ccc(S(=O)(=O)N3CCCC3)cc2)n1C	4%
O=C(Nc1ccc(Br)cc1)c1ccc(N2C(=O)C3CC=C(Cl)CC3C2=O)cc1 (stereo not drawn)	4%
COc1cccc(C(=O)NNC(=O)C(=O)Nc2ccc(C)c(Cl)c2)c1	-6%
O=C(Cn1nc(-c2ccccc2)c2ccccc2c1=O)Nc1cccnc1	-11%
c1nnc(NC2=NCCC2)s1	4%
Cc1ccc(C(=O)NNC(=O)c2ccccc2-n2cccc2)cc1	-4%
COc1ccc(-c2ccc(NCCC3=CCCCC3)nn2)cc1OC	-2%[2.35 µM]
CCOC(=O)C1=C(N)n2c(s/c(=C/c3ccco3)c2=O)=C(C(=O)OC)C1c1ccco1 (stereo not drawn)	-5%
CC(C)c1ccc2occ(-c3nn[nH]n3)c(=O)c2c1	?
O=C1Nc2cc(C(=O)N3CCOCC3)ccc2SC1N1CCOCC1 (stereo not drawn)	11%
Cc1sc(NC(=O)c2ccco2)c(CN2CCN(c3ccccn3)CC2)c1C	2%

Structures listed so far that contain bromine (three):
SMILES	N370S GC mod
O=C(NNC(=S)NCC1CCCO1)c1cc(Br)ccc1Cl (stereo not drawn)	0%
CC(C)(C)NC(=O)C(=O)NNC(=O)c1ccccc1Br	-7%
O=C(Nc1ccc(Br)cc1)c1ccc(N2C(=O)C3CC=C(Cl)CC3C2=O)cc1 (stereo not drawn)	4%

(list continues)
SMILES	N370S GC mod
COC(=O)CNC(=O)COC(=O)/C=C/c1ccc2ccccc2n1	4%
CCOC(=O)C1C(=O)Nc2nc(C)nn2C1c1ccccc1 (stereo not drawn)	1%
CN(CC(=O)Nc1ccccc1C(F)(F)F)C(=O)C1=COCCO1	-3%
O=C1OCCN1C(=O)[C@H]1[C@H](c2ccc([N+](=O)[O-])cc2)C(c2ccccc2)=NN1c1ccccc1	-6%
CC/C(Cc1ccccc1)=N/NC(=O)c1cccc(Br)c1	-29%
O=C1CC(c2nc3ccccc3[nH]2)CN1c1cccc(C(F)(F)F)c1 (stereo not drawn)	-22%
CCC(=O)Nc1nc(C)c(C(=O)N2CCCCC2)s1	16%
O=c1/c(=C\c2ccc3c(c2)OCO3)sc2n1CCCN=2	0%
CCCCN(C(=O)C1CC(=O)N(c2ccc(C)cc2)C1)c1c(N)n(CCC)c(=O)[nH]c1=O (stereo not drawn)	-16%
